Screening results as filed in PubChem.
ClpP mod: qHTS Assay for Activators of ClpP. ATP-dependent Clp protease proteolytic subunit (Bacillus subtilis (strain 168)), P80244. purified B. subtilis ClpP, FRET peptide cleavage, 20 min. Potency, µM (top dose mostly 57.5 µM), for the others: at the top dose activity change, negative = active. 340,000 tested, 1.9% active; active = well fitted falling curve with a large enough effect; inconclusive = small, poorly fitted or top-dose-only effect; inactive = no such curve, though single readings can be large or run the other way; note: potency is the fitted concentration of half-maximal effect; the source files actives as falling curves though it sought activators and does not explain the sign; nearly all actives have a fitted effect of over 65% in size; many hits overshoot -100%
Target sequence (P80244 whole entry, looked up): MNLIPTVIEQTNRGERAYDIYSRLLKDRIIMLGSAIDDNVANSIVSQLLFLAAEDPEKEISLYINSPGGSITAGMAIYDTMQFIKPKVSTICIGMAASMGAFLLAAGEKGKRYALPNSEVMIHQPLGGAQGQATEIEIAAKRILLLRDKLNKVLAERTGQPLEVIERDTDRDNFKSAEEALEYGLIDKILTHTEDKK
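Buffer: 100 mM Tris/HCl pH8, 100 mM KCl, 0.05% low protease BSA, 2.5% glycerol, 0.01% Tween-20. ClpP 10 microg/mL final; 20 min RT; delta FRET normalized to ADEP and DMSO controls.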
TRPML1 agonist: human mucolipin-1 channel agonism. activation, % (test concentration not listed). 410,000 tested, 0.12% active. TRPML1-expressing cells, Ca2+ dye fluorescence, FDSS; host cell line not named in the record; reference of the full effect not given here. Q9GZU1; in the data active = activation above about 50%; inconclusive = about 30% to 50%; inactive = below about 30%; note: 0% is about no effect; the text of the record puts the active cut at 80%
Target sequence (Q9GZU1 whole entry, looked up): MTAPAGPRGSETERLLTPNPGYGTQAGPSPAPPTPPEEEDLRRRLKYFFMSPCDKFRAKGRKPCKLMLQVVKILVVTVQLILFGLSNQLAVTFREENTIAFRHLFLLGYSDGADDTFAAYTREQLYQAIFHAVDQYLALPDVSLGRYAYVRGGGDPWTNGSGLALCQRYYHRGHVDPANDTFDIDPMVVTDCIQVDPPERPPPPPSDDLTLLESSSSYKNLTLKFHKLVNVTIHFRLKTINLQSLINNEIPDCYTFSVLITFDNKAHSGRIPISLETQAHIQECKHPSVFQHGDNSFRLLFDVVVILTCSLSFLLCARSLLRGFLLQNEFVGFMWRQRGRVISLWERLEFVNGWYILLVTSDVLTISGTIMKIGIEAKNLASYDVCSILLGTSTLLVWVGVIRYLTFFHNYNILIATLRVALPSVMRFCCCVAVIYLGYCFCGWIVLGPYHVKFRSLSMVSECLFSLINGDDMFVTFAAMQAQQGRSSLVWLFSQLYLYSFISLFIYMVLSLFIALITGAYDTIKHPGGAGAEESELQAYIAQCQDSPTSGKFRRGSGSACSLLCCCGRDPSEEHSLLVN
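Cells: TRPML1-DL, 1X Tet inducer, ~16 h at 37 degrees C/5% CO2. Dye: ABD Ca8 no-wash + quencher, 45-90 min RT. Read: 10 s baseline, compound add, 110 s agonist phase; 54-4 EC80 (4uM final), 110 s antagonist phase.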
gsp antag: gsp mutant antagonism. gsp-mutant cells, cAMP HTRF, 30 min; control for the full effect not named in the record. Potency, µM (top dose mostly 76.9 µM), without a hit: at the top dose activity change, negative = inhibition, actives largely listed as inhibitors. 340,000 tested, 0.4% active. AID 624288; active = falling curve of any shape with a large fitted effect; inconclusive = falling curve, mostly with a smaller effect; inactive = flat or rising curve; cell line not stated here;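 note: intracellular cAMP measured with PDE inhibitor Ro 20-1724 present during compound exposure; potency is the fitted concentration of half-maximal effect; % is set by controls: 0 for no effect and ±100 for the full control effect; nearly all actives have a fitted effect of over 65% in size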
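HTRF cAMP measurement after 30 min RT detection following 30 min, 37C compound treatment alongside […] (added as 300 uM solution) in G418-selected cells seeded at 2000/well and grown 16–24 h.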
TRPML1 blocker: human mucolipin-1 channel inhibition; Q9GZU1; TRPML1-inducible cells, Ca2+ dye fluorescence, FDSS; hits give low values; inhibition of EC80 agonist-evoked calcium signal; activity change, negative = inhibition, % (test concentration not listed); 390,000 tested, 0.02% active; AID 624415; in the data active means activity change below about -50%; inconclusive means about -30% to -50%; inactive means above about -30%;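 note: stimulus is agonist 54-4 at its EC80 concentration; % is set by controls: 0 for no effect and ±100 for the full control effect; compound concentration not given in the record; the text of the record puts the active cut at -80%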
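TRPML1-DL cells, Tet-induced overnight (~16 h, 37 °C) at 1,500 cells/well, were loaded with Ca8 no-wash dye plus quencher for 45-90 min at room temperature. Compounds were pinned during FDSS kinetic reading; agonist 54-4 at EC80 (4 uM final) then added.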
gsp agonist: gsp mutant agonism; gsp mutant cells, cAMP HTRF, 30 min; control for the full effect not named in the record; Potency, µM (top dose mostly 76.9 µM), for the others: at the top dose activation (cAMP increase), hits mostly activators; 340,000 tested, 0.13% active; active = well fitted activation curve with a large enough effect; inconclusive = small, poorly fitted or top-dose-only effect, or another doubt; inactive = no such curve, though single readings can be large or run the other way; cell line not stated here;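 note: phosphodiesterase inhibitor Ro 20-1724 added with compounds to block cAMP breakdown; potency is the fitted concentration of half-maximal effect; nearly all actives have a fitted effect of over 60% in size; about a fifth of the inactives were tested at one dose only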
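Cells in DMEM/10% FBS with G418 were pretreated with compounds in DMSO plus […] (300 uM stock) for 30 min at 37C. cAMP was measured by HTRF (cAMP-d2 plus anti-cAMP antibody-K) after 30 min at room temperature.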
Menin MLL FP FL: displaces fluorescein MLL peptide from human menin; Fluorescence polarization, fluorescein-MLL peptide displacement from menin; 290,000 tested, under 10 active; AID 1766; FP activity change, % at 61.4 µM; inconclusive = falling polarisation curve, or a change in total fluorescence; inactive = total fluorescence flat and polarisation flat or rising; no compound was filed as active; the % refers to the polarisation; negative = inhibition;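 note: % of control where 0% means no effect; inhibitors lower the polarisation; unlabelled MLL peptide was the positive control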
* = called active by the depositor; ? = inconclusive; . = no result given; [ ] = remark or other dose.

SMILES | ClpP mod | TRPML1 agonist | gsp antag | TRPML1 blocker | gsp agonist | Menin MLL FP FL
CCCOc1ccc(N2C(=O)CC(NCC(=O)OCC)C2=O)cc1 (stereo unspecified) | . | 0.2 | 12% | -8 | 14%[15.4 µM] | .
COc1ccc(NC(=O)CN(c2cc(C)cc(C)c2)S(=O)(=O)c2c(C)noc2C)cc1 | 2.0% | 0.8 | -22% | -7 | 21% | 1.4
C=CCN(CC=C)C(=O)c1cccc(OC2CCN(S(=O)(=O)N(C)C)CC2)c1 | . | 0.0 | -9% | -17 | -58%[inhibitor] | 0.7
CCN(CC(=O)Nc1ccc2c(c1)OCCO2)CC(=O)Nc1ccc(C)c([N+](=O)[O-])c1 | . | 3.8 | -20% | -4 | -21% | .
O=C(COC(=O)/C=C/c1ccc(OC(F)F)cc1)Nc1ccc(N2CCOCC2)cc1 | 0.9% | -0.2 | 14% | 48 | 5% | .
O=C(Cn1c(=O)n(-c2ccc(Cl)cc2)c(=O)c2c3c(sc21)CCC3)c1ccc(F)cc1 | -11% | 1.2 | . | -3 | . | .
COc1ccc(-n2c(Cn3c(=O)sc4ccccc43)nnc2SC)cc1 | 0.1% | -0.3 | 3% | -11 | 24% | 3.7
CC(C)(C)c1ccc(/C=C/C(=O)Nc2ccncc2)cc1 | -2.2% | 1.5 | 0% | 13 | -22% | 3.4
O=C(Cc1c(F)cccc1Cl)NNC(=O)c1ccco1 | 2.0% | -0.1 | 9% | -15 | -6%[15.4 µM] | .
CC(C)(C)NCCC(O)c1cc(C(F)(F)F)nc2c(C(F)(F)F)cccc12 (stereo unspecified) | 2.3% | 6.6 | 19% | -14 | 3% | .
O=C(NC(=S)Nc1ccc(Cc2ccncc2)cc1)c1ccccc1F | -0.9% | 0.5 | -18% | -10 | 3%[15.4 µM] | 5.9
COC(=O)c1c(C(C)=O)cnc2ccc(Br)cc12 | -3.4% | -0.6 | 1% | -11 | ? | 2.2
COc1ccc(S(=O)(=O)Cc2ccc(C(=O)N3CCC(C(N)=O)CC3)o2)cc1 | 0.5% | -0.3 | 6% | -1 | -40%[inhibitor] | 2.3
Cc1ccc(Cn2c(CNS(=O)(=O)c3ccc(F)c(Cl)c3)nc3cccnc32)cc1 | -0.9% | 0.7 | . | -2 | . | .
O=c1ccc(/C=C/c2ccccc2)nn1Cc1ccc(Cl)cc1Cl | 28µM* | 0.5 | 4% | -1 | ? | 0.4
O=C(NCC1CCCO1)c1onc(CSc2cccc(Cl)c2)c1C(=O)O (stereo unspecified) | 2.6% | -0.6 | -1% | 10 | ? | 3.5
CC(=O)Nc1cccc2c1C(=O)NC2=O | ? | -0.8 | 4% | -8 | -10% | 3.3
C/C(CC(=O)NCCc1ccccc1)=N\NC(=O)COc1ccc(Br)cc1 | -13% | -1.1 | -11% | -14 | 2%[15.4 µM] | .
Cc1ccc(C2=NCCn3c2c2ccccc2[n+]3[O-])cc1 | -0.4% | -0.2 | 10% | -12 | . | .
CCOc1ccccc1-n1c(SCC(=O)Nc2ccc(CC)cc2)nc2n[nH]c(C)c2c1=N | ? | -0.1 | -3% | 5 | 3% | 2.9
CCOCCc1nnc(NC(=O)CCC2CCCCC2)s1 | 0.0% | 1.0 | -10% | -2 | -21% | -4.4
CCCC(=O)N(Cc1cc2cc(OC)ccc2[nH]c1=O)c1ccccc1OC | 3.7% | -0.1 | . | 2 | -15% | .
CSc1ccc(Cl)c(C(=O)Nc2cc(S(=O)(=O)N3CCOCC3)ccc2N2CCOCC2)c1 | -2.3% | 0.6 | -13% | -13 | 0%[15.4 µM] | .
O=C1c2ccccc2-c2nc3ccccc3cc21 | -2.2% | -1.4 | -5% | -5 | 10%[15.4 µM] | -4.8
COC(=O)Cn1cc(C(=O)c2ccco2)c2ccccc21 | -0.6% | 0.2 | -6% | 23 | -12% | 0.7
Cc1ccsc1C(=O)OCC(=O)c1ccc(OC(F)F)cc1 | 0.0% | 0.6 | 1% | -14 | -15% | .
CN(C)S(=O)(=O)N1CCN(C(=O)c2ccccc2Cl)CC1 | -1.0% | 0.4 | 2% | 26 | -31%[inhibitor] | 1.2
CCCS(=O)(=O)c1c(S(=O)(=O)CCC)c2c3ccccc3ccn2c1C(=O)OC | ? | 17 | -15% | 21 | 4% | 1.3
CCOC(=O)c1ccccc1NC(=O)CSc1nnnn1C | -13% | 0.0 | 5% | -5 | 2% | -0.9
COCCn1nnnc1C(c1ccccn1)N1CCN(c2cccc(C)c2C)CC1 (stereo unspecified) | -1.6% | 1.5 | 6% | ? | -5% | 0.5
CN(C)c1cccc(C(=O)OCC(=O)N(C)c2ccccc2)c1 | . | 1.9 | -4% | 6 | ? | 1.5
NS(=O)(=O)c1ccc(NC(=O)COC(=O)/C(=C/c2cccs2)c2cccs2)cc1 | 1.8% | 1.7 | ? | 4 | ? | 1.0
COc1ccc(NC(=O)CCCn2c(=O)c3sccc3n(Cc3ccccc3)c2=O)cc1 | -1.3% | 0.5 | -6% | -12 | -7%[15.4 µM] | -5.7
COc1cc(-c2noc(C)c2/C=C/c2ccc(C(=O)O)cc2)cc(OC)c1OC | -16% | -0.5 | 8% | -3 | -1% | -0.5
COc1ccc(C2Nc3ccccc3NC3=C2C(=O)CC(C)(C)C3)cc1 (stereo unspecified) | -0.8% | 1.4 | -13% | -8 | 3% | -1.2
ONC(=Nc1ccc(Cl)cc1)c1ccccc1Cl | 2.1% | -0.4 | -4% | 2 | 1% | 0.6
Cn1cc(CNCCCn2ncc3ccccc32)c(-c2ccccc2F)n1 | -7.2% | 0.1 | 1% | -8 | 13% | -2.1
CCc1ccc(NC(=O)CCCOc2cc(=O)n(C)c3ccccc23)cc1 | -4.8% | 2.7 | . | -4 | . | .
Cc1ccc(C)c(NC(=O)CCc2nnc3ccc(NCc4ccco4)nn23)c1 | -0.9% | 0.4 | -9% | 25 | -11% | 4.7
CCN(C(=O)CN1CCN(S(=O)(=O)c2ccccc2C(F)(F)F)CC1)c1c(N)n(Cc2ccccc2)c(=O)[nH]c1=O | -2.1% | 1.6 | 13% | -12 | -17% | 0.6
COc1cc(NC(=O)N2CCC(CN3CCCC3)CC2)cc(OC)c1OC | -4.3% | 0.7 | . | -14 | . | .
Cc1ccc(N(CC(=O)NCc2ccccc2)C(=O)c2csnn2)c(C)c1 | . | 0.3 | -6% | -9 | -8% | -3.7
COc1ccccc1C(=O)N1CCN(CCc2ccccc2)CC1 | -2.9% | 0.2 | 1% | -11 | 23% | -1.5
NC(=O)CCC(C(=O)O)N1C(=O)C2C3CCC(C3)C2C1=O (stereo unspecified) | -0.9% | -0.7 | . | 39 | 15% | .
O=C(CNc1cccc(S(=O)(=O)N2CCCC2)c1)Nc1ccc(F)c(F)c1 | -3.6% | -0.1 | -22% | -14 | -39% | .
CCc1nnc(NC(=O)C2CCCCC2)s1 | 1.0% | 0.0 | 9% | 1 | ? | -0.7
Cc1cccn2c(=O)cc(CSc3nnc(NC(=O)C(C)C)s3)nc12 | -4.6% | 1.8 | . | 29 | . | .
COC(=O)c1c(NC(=O)COc2ccc(Cl)cc2)sc(C)c1C | 0.5% | -0.3 | . | -6 | . | .
CNC(=O)C[C@H]1C(=O)N(c2ccc(OC)cc2)C[C@@H]1C | -1.4% | -0.3 | . | -2 | 21% | .
CN1CCN(NC(=O)Nc2cccc(F)c2)CC1 | -0.2% | 0.4 | -15% | 13 | 1% | .

(list continues)
SMILES | ClpP mod | TRPML1 agonist | gsp antag | TRPML1 blocker | gsp agonist | Menin MLL FP FL
COc1ccc(OC)c(NC(=O)CCCCCn2nnc3ccccc3c2=O)c1 | -1.3% | 0.3 | -4% | -2 | -13% | 6.0
O=C(NCCc1nc2ccccc2[nH]1)/C(=C/c1ccc(F)cc1)NC(=O)c1ccco1 | -0.7% | -0.6 | 5% | -15 | 5% | 7.2
CCOC(=O)c1cc(-c2ccccc2)n(CCCC(=O)Nc2ccccc2C)c1C | 23% | 0.3 | . | 24 | . | .
Cc1cccc(Nc2nnc(SCC(=O)c3c(N)n(C4CC4)c(=O)[nH]c3=O)s2)c1 | -0.3% | 0.4 | -17% | -17 | ? | .
N#CCSc1ccsc1C(=O)Nc1ccc(F)cc1 | -2.1% | 1.2 | -5% | -17 | 7% | 2.4
O=C(CSc1ccc(S(=O)(=O)N2CCCCC2)cn1)Nc1ccccc1Br | 0.5% | 0.8 | -23% | 0 | 9% | .
Cc1c(Cl)cccc1NCC(=O)Nc1ccc(Cl)cc1F | -0.5% | 3.0 | 12% | 40 | -38%[inhibitor] | 5.1
CCn1c(SC(C)C)nnc1-c1c[nH]c2ccccc12 | -0.9% | 0.0 | -3% | 4 | -53%[inhibitor] | ?
COc1cc(/C=C/C(=O)N[C@@H](Cc2c[nH]c3ccccc23)C(=O)O)ccc1O | . | 0.5 | 1% | -20 | -3% | 6.2
O=C1C=C(c2cccc3c2Oc2ccccc2S3)C[C@@H](c2ccc(Cl)cc2)C1 | -1.4% | -0.3 | -2% | 14 | . | .
CCN(CCCNC(=O)c1c(C)oc2ncn(CC(C)C)c(=O)c12)Cc1ccccc1 | -1.0% | -1.2 | . | -4 | . | .
CC(C)c1ccc(CNc2nc(NCC3CC3)nc3ccsc23)cc1 | -20% | -0.2 | . | 68 | . | .
CC(C)c1ccccc1NC(=S)NN(Cc1ccccc1)c1ccccc1 | 0.1% | 1.2 | 9% | -3 | -18% | -6.1
CC(=O)NS(=O)(=O)c1ccc(NC(=O)C(Sc2ccccc2)c2ccccc2)cc1 (stereo unspecified) | -1.1% | 0.2 | -6% | -4 | -82%[inhibitor] | -1.3
CC(C)(C)c1ccc(NC(=O)c2cc[n+]([O-])cc2)cc1 | . | -0.2 | 10% | -3 | -1%[15.4 µM] | -2.6
Cc1cc(C(=O)OCC(=O)NCc2ccco2)c(C)n1-c1ccc(F)cc1 | -1.0% | 0.3 | 12% | -7 | 1% | 3.2
Cc1ccccc1C(=O)NC(=S)Nc1ccccc1[N+](=O)[O-] | . | -0.5 | ? | -5 | -14%[15.4 µM] | -5.6
O=C(CCC1CCCC1)N1CCC(N2CCCCCC2)CC1 | ? | 0.4 | 14% | -8 | -8% | -9.8
CCOc1cc(S(=O)(=O)N2CCOCC2)ccc1F | 1.5% | -0.1 | 8% | 4 | ? | -1.6
Cc1cc(C(=O)COc2cc(F)ccc2[N+](=O)[O-])c(C)n1C1CC1 | . | 0.4 | -19% | 57 | 11% | 0.9
COc1ncnc2c1ncn2CCCNCc1ccccn1 | -1.1% | -0.1 | . | -12 | -2% | .
CCOc1cc(CNCc2cccnc2)cc(Br)c1OCC(N)=O | -0.7% | -0.7 | -2% | 45 | -8%[15.4 µM] | -5.3
